Compound activity from PubChem BioAssay.
T cruzi repl = T. cruzi replication inhibition | 1.4% of 300,000 active | T. cruzi beta-gal in NIH3T3, luminescence, 90 h | inhibition, % (concentration not given with the values);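 active = mean inhibition across valid replicates above about 55%, limit read from the data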;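 also: signal also drops with host cell toxicity which is not excluded here; 0% = plate median of DMSO wells and 100% = zero luminescence signal; higher percent means less beta-gal luminescence so fewer parasites; stock transfer was 50 nL into about 50 µL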
A1 inh = inhibitors of the anti-apoptotic protein A1, read as caspase activation; caspase activation, % (concentration not given with the values); MEF A1-2A-BIM cells, Caspase-Glo 3/7 luminescence, 3 h; percent of clofoctol response, vehicle zero; 0.066% of 330,000 active; AID 2462;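 active = over half of replicate activation scores above 10%, or exactly half above 10 with the replicate mean above 10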;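 also: wells of about 30 µL received 50 nL stock; many hits fall short of the cut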
FGF22 binding = shifts melting point of recombinant human FGF22; Q9HCT0; recombinant FGF22 thermal shift, SYPRO orange fluorescence; percent of sucrose octasulfate shift, DMSO zero; calls only at 9.99 µM; 1.5% of 340,000 active;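 active = melting point raised past a set limit in the mean and every replicate; three in four hits are not shown here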
Target sequence (Q9HCT0 whole entry, looked up): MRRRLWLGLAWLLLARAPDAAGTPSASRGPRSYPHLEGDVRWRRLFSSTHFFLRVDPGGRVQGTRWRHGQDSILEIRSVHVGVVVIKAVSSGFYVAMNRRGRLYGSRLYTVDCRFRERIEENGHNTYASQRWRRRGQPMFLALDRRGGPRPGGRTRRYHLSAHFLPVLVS
MLL AF4-AF9 inh = MLL-AF4/AF9 protein interaction inhibition. P42568. AlphaScreen, biotin-AF4 peptide binding to FLAG-AF9. 0.47% of 350,000 active. inhibition, % at 10 µM;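 active = every replicate reaching a set inhibition limit, whatever the replicate mean, cut at about 25% in these data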;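 also: 0% = plate neutral control median and 100% = total signal loss; the record names both 10 and 1 µM as test concentration; the first replicate is given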
Target sequence (P42568 whole entry, looked up): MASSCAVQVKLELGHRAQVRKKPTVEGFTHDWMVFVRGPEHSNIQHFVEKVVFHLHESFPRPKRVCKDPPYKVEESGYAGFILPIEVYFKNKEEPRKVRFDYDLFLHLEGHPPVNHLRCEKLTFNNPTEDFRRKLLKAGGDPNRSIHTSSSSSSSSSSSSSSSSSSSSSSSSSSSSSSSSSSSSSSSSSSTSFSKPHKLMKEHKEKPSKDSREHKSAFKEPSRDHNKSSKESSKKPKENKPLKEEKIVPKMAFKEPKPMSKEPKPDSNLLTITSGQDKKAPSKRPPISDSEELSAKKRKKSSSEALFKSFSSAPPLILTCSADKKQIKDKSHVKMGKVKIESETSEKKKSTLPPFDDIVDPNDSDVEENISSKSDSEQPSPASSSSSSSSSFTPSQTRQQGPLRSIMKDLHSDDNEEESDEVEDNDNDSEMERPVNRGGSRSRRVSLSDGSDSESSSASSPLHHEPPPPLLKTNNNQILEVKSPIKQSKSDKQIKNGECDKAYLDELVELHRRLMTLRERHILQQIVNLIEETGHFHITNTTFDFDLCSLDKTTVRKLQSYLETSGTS
Beta apoptosis = blocks beta cell apoptosis; 0.8% of 300,000 active; AID 435005; INS-1E cytokine-induced death, ATP luminescence, 48 h; percent of positive-control rescue, neutral wells zero; protection from apoptosis, % (no concentration beside the values);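 active = all replicates at 75% or more, or half of them and the mean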;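 also: 0% = cytokine-treated negative control wells and 100% = positive control rescue; higher means more ATP so stronger rescue from cytokine killing; wells of about 40 µL received 100 nL stock; the first replicate is given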
UCH37 DUB inh = blocks the human deubiquitinase UCH37; inhibition, % (test concentration not listed); AID 588478; Q9Y5K5; purified proteasome/UCH37, Ub-AMC cleavage fluorescence; 0.33% of 330,000 active;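 active = mean of two replicates above 20%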;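 also: 0% = compound-free wells with enzyme and 100% = wells lacking proteasome; stock transfer was 100 nL into about 20 µL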
Target sequence (Q9Y5K5 whole entry, looked up): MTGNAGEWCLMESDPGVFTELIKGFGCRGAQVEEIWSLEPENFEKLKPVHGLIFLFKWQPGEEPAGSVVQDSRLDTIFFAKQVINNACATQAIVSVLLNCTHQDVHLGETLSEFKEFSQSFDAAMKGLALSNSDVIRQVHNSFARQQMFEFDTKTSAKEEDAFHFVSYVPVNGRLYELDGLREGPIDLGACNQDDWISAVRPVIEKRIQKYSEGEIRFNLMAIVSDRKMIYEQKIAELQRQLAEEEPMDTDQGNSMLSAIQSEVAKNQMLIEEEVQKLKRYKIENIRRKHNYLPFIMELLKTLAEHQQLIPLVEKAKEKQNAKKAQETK
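Schedule: 30 min plus 25 min, room temperature / Material: human UCH37 within purified proteasomes / Technique: AMC fluorescence intensity at 355/460 nm / Buffer or medium: pH 7.4 Tris-HCl (50 mM) with ovalbumin, ATP-MgCl2, DTT / Controls: wells without proteasome as full block, compound-free enzyme plus substrate as uninhibited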
Ecoli growth = inhibitors of Escherichia coli growth | AID 1053175 | OD600, 23 h; active compounds read low | 0.21% of 330,000 active | OD600 absorbance (test concentration not listed);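 active = OD600 absorbance below the run mean of sample wells minus 3.6 SD, in any replicate, cut at about 0.56 in these data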;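 also: stock transfer was 300 nL into about 60 µL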
Ecoli rRNA inh = selective bacterial rRNA inhibition in E. coli; E. coli WT GFP vs humanized-ribosome RFP mutants, fluorescence, 24 h; active compounds read low; DMSO median 0, no signal -100; GFP signal change (wild-type ribosome), % (test concentration not listed); 1.6% of 350,000 active; AID 720706;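 active = significant combined selectivity score with lowered wild-type GFP, culture density cut under 30%, mutant RFP and density less affected; inactive = any of these conditions unmet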; also: one replicate is shown; some compounds called inactive have numbers as strong as hits
Ecoli rRNA inh OD600 = also measured in Ecoli rRNA inh; calls as there; OD600 change, %; measured here: OD600 growth;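 optical density of the mix in the first replicate; 0 = DMSO median and -100 = no signal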
Ecoli rRNA inh RFP = further read-out of Ecoli rRNA inh, marked with its call; RFP signal change, %; measured here: RFP humanized mutant strains;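 first replicate; 0 = DMSO median and -100 = no signal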
The depositor's hits bear a star; i = inactive; x = no result given; + = active, no number; & = joins results of further samples. This is a subset (hit frequency here may not be typical).

Fields – T cruzi repl, A1 inh, FGF22 binding, MLL AF4-AF9 inh, Beta apoptosis, UCH37 DUB inh, Ecoli growth, Ecoli rRNA inh, Ecoli rRNA inh OD600, Ecoli rRNA inh RFP
- COc1ccc2nc(NC(=O)c3cc(S(=O)(=O)N4CCOCC4)ccc3C)sc2c1
 : 13, -0.7, x, x, 7, -1.7, 0.71, x, x, x
- O=C(NC(=S)Nc1ccccc1N1CCOCC1)c1ccco1
 : -27, 0.3, x, x, -5, 0.6, x, x, x, x
- COc1cc(C(=O)NC2CCN(CC(=O)Nc3cccc(C)c3C)CC2)cc(OC)c1OC
 : -2, 1.2, i, -1.1, 5, x, x, 10, 8, 1.0
- CCCCc1cc(=O)oc2cc(OCC(=O)NC3CCN(Cc4ccccc4)CC3)ccc12
 : 41, -0.7, i, 0.5, 7, -4.1, 0.67, 7, -6, 2.5
- Cc1cccc(NC(=O)N(Cc2nc3ccccc3c(=O)[nH]2)C2CCCC2)c1
 : -2, 0.3, x, x, 2, 1.5, 0.73, x, x, x
- C=C(c1ccc(OCCO)cc1)c1ccc(OCCO)cc1
 : 2, -0.5, x, x, x, 5.3, 0.72, x, x, x
- CC(=O)Nc1ccc(S(=O)(=O)N2CCN(c3ccccn3)CC2)cc1
 : 2, -1.1, x, x, 0, 0.7, 0.73, x, x, x
- CC(C)N1CCN(CC2COc3ccccc3O2)CC1 (stereo not given)
 : 33, 0.5, i, 0.6, 0, 5.1, 0.66, 14, 18, 0.1
- CC1=CCP(=O)(c2ccccc2)C1 (stereo not given)
 : -2, 0.7, x, x, 1, -1.6, 0.67, x, x, x
- O=C(CNC(=O)c1ccc(Cl)cc1Cl)NCC(=O)Nc1ccccc1N1CCOCC1
 : 1, 0.4, x, x, -8, 0.5, 0.71, x, x, x

As entered above.
CCCCc1cc(=O)oc2cc(OCC(=O)NC3CCN(Cc4ccccc4)CC3)ccc12 in Ecoli rRNA inh = 7
CC(=O)Nc1ccc(S(=O)(=O)N2CCN(c3ccccn3)CC2)cc1 in UCH37 DUB inh = 0.7

Additional results:
Fields – T cruzi repl, A1 inh, FGF22 binding, MLL AF4-AF9 inh, Beta apoptosis, UCH37 DUB inh, Ecoli growth, Ecoli rRNA inh, Ecoli rRNA inh OD600, Ecoli rRNA inh RFP
- CC1=NN(Cc2ccccc2)C(=O)C1C(c1ccccc1)C(C#N)C#N (stereo not given)
 : -12, 1.1, x, x, -7, 2.2, 0.67, x, x, x
- Cc1c(NC(=O)C(C)Sc2nccn2C)c(=O)n(-c2ccccc2)n1C (stereo not given)
 : x, 0.4, i, -0.5, -2, 1.2, 0.68, 0, 11, -1.7
- CCS(=O)(=O)c1ccc(O)c(NC(=O)/C=C/c2ccc(Cl)cc2)c1
 : -4, 0.1, i, 3.6, -10, 6.9, 0.7, -31, -48, -19
- Cc1cc(C)cc(N(C(=O)c2snc(C(N)=O)c2N)C(C(=O)NCC2CCCO2)c2cccs2)c1 (stereo not given)
 : 46, 0.3, i, 2.9, 2, -50, 0.67, -7, -7, -2.1
- O=C(c1ccco1)N1CCC(c2nc3c(nnn3Cc3c(Cl)cccc3Cl)c(=O)[nH]2)CC1
 : -1, -1.0, i, 0.6, 0, 6.3, 0.65, -2, 3, -2.9
- O=C(c1ccc(O)c(Cl)c1)N1CCN(S(=O)(=O)c2ccccc2)CC1
 : -3, -0.2, i, -0.5, 4, 1.8, 0.69, 0, -4, -1.4
- CCOc1ccccc1NC(=S)N1CCN(c2cccc(OC)c2)CC1
 : 0, 0.6, i, 1.2, 0, 3.8, 0.7, -9, -15, 2.1
- O=C(O)CNc1ccccc1C(=O)O
 : -4, 0.6, i, -4.7, -7, -185, 0.69, 24, 3, -0.4
- COc1ccc(OC)c(S(=O)(=O)N(C)CC(=O)Nc2ccc3c(c2)OCO3)c1
 : -6, -0.2, x, x, 5, -0.5, 0.72, x, x, x
- CC(C)Sc1nc2ncnc(N)c2[nH]1
 : -6, 0.3, x, 0.3, -6, 2.1, 0.69, 7, 4, -3.5

Fields – T cruzi repl, A1 inh, FGF22 binding, MLL AF4-AF9 inh, Beta apoptosis, UCH37 DUB inh, Ecoli growth, Ecoli rRNA inh, Ecoli rRNA inh OD600, Ecoli rRNA inh RFP
- Cc1ccc(-c2oc3ncnc(N)c3c2-c2ccc(C)cc2)cc1
 : 37, 0.1, x, x, 12, -135, 0.69, x, x, x
- CC1(C)CC(=O)C2=C(C1)OC1=C(C(=O)CC(C)(C)C1)C2c1cc([N+](=O)[O-])cc([N+](=O)[O-])c1O
 : -3, -0.2, x, -3.1, x, 12, 0.68, -2, -4, -1.8
- COc1ccc(NC(=O)C(NC(=O)c2ccc(=O)[nH]c2)c2ccc(C)cc2)cc1 (stereo not given)
 : -7, -0.2, i, 1.3, -9, 2.4, 0.67, -5, -6, -2.0
- O=C(N/N=C/c1cccc(O)c1)N/N=C/c1cccc(O)c1
 : -15, -2.2, i, -0.4, -2, x, x, -4, -6, -1.9
- CCC(C)OC(=O)n1ccc(C(=O)Nc2nccs2)n1 (stereo not given)
 : 4, -0.8, x, x, 4, 1.1, 0.66, x, x, x
- C/C(=N\NC(=O)C(N)=O)c1ccc(NC(=O)c2cccs2)cc1
 : 8, -2.9, i, -15, x, x, x, 9, 5, -1.7
- O=C(c1ccc(-c2ccc([N+](=O)[O-])cc2)o1)N1CCN(S(=O)(=O)c2cccs2)CC1
 : x, 0.7, i, -0.5, 3, 3.1, 0.72, 8, 10, -1.7
- Cc1cnc(C(=O)OCC(=O)Nc2ccc(C)c(S(=O)(=O)N(C)C)c2)cn1
 : -24, 0.5, i, 7.9, -9, 4.4, 0.7, 2, 7, 0.0
- CCN(CC)C(=S)NC(=O)C12CC3CC(CC(C3)C1)C2
 : 6, 0.4, i, 0.9, -9, 1.0, 0.64, 7, 4, 4.0
- CCOc1ccc(N2C(=O)CN(c3cccc4ccccc34)C2=S)cc1
 : -18, -1.1, i, -0.4, -3, -0.3, 0.69, 16, 1, -1.0

Fields – T cruzi repl, A1 inh, FGF22 binding, MLL AF4-AF9 inh, Beta apoptosis, UCH37 DUB inh, Ecoli growth, Ecoli rRNA inh, Ecoli rRNA inh OD600, Ecoli rRNA inh RFP
- CNC(=O)c1cc(C(=O)c2ccc(C(F)(F)F)cc2F)c[nH]1
 : 3, -0.1, i, 0.2, 5, 4.3, 0.71, -25*, -8.4*, -5.6*
- COc1ccc(NC(=O)N(C)C[C@H]2Oc3ccc(NC(=O)Cc4ccccc4)cc3CC(=O)N([C@H](C)CO)C[C@H]2C)cc1
 : x, 1.1, i, 0.6&0.3, -2, 1.3, x, -2&3, -13&1, -1.8&-5.7
- Cc1ccc(CSCc2ccc(C(=O)NCCC(C)C)o2)cc1
 : 7, 0.9, i, 0.8, -3, -2.9, 0.67, -3, 4, -2.6
- Cc1[nH]c(N=Nc2ccccc2)nc1N=Nc1ccccc1
 : 65*, 0.4, i, -0.3, 100*, x, x, -50, -72, -20
- CCCCN(C(=O)c1cccc(-n2cccc2)c1)c1c(N)n(CCCC)c(=O)[nH]c1=O
 : -5, -0.8, i, 0.7, -3, -4.8, 0.67, 13, 20, 2.2
- O=c1ccc(-c2ccc(S(=O)(=O)Nc3cccc([N+](=O)[O-])c3)s2)n[nH]1
 : 0, -0.1, i, 2.4, -5, 8.7, 0.68, -6, 7, 0.6
- Cc1cc(SCC(=O)N/N=C/c2ccc(O)c(O)c2)nc2ccccc12
 : -8, -0.7, i, 3.9, 6, x, x, -10, -13, 12
- Cc1cccc(OCC(=O)NC(=S)Nc2ccc(S(=O)(=O)NC3CCCCC3)cc2)c1
 : 2, -0.2, x, x, -5, -2.5, 0.78, x, x, x
- Cc1nn2cnnc2c(C)c1Cc1ccc(Cl)cc1
 : -4, 0.5, i, -14, -3, -5.0, 0.68, -6, -14, -9.3
- C[C@]12CCC(O)CC1=CCC1C2CC[C@]2(C)/C(=N\NC(N)=S)CCC12 (stereo not given in full)
 : 66*, -0.6, x, -0.1, -10, x, x, -2, -4, 8.4

Fields – T cruzi repl, A1 inh, FGF22 binding, MLL AF4-AF9 inh, Beta apoptosis, UCH37 DUB inh, Ecoli growth, Ecoli rRNA inh, Ecoli rRNA inh OD600, Ecoli rRNA inh RFP
- CCCCCCn1c(SCCCC)nc2c1c(=O)[nH]c(=O)n2C
 : x, 0.8, x, x, 9, 5.8, 0.77, x, x, x
- Cc1cc(C)c(NC(=O)c2ccc(CN3CCc4ccccc4C3)cc2)c(C)c1
 : 10, -1.0, x, x, 7, -2.0, 0.7, x, x, x
- CC(NC(=S)NC(=O)c1ccccc1)c1ccccc1 (stereo not given)
 : -11, 0.1, i, 0.1, 0, 3.7, 0.66, -14, -1, -2.3
- CC(C)CC(=O)N1CCN(Cc2ccc(Cl)cc2)CC1
 : -7, -0.6, i, 2.1, x, 0.6, 0.67, 1, 0, -4.4
- Cc1cc(C(=O)NC2CCCCCCC2)ccc1[N+](=O)[O-]
 : 6, -0.1, i, -2.7, 17, 0.9, 0.67, 3, 3, -1.5
- Cc1ccc(S(=O)(=O)N2CCOCC2)cc1C(=O)Nc1ccc(N2CCCCCC2)cc1
 : x, x, i, 8.3, x, 1.4, 0.66, -4, -3, 0.6
- CCOC(=O)CCCc1ccc(/C(C)=N/NC(N)=S)cc1
 : 36, 0.9, i, 7.0, 33, x, x, -44*, -34*, -3.7*
- COc1cc2c(c(OC)c1OC)-c1c(cc3c(c1O)OCO3)C[C@@H](C)[C@@H](C)C2
 : 21, -0.1, i, 5.9, -6, 2.8, x, -50, -79, -24
- COc1ccccc1CCc1nnc(CCC(=O)NC(C)Cc2cccs2)o1 (stereo not given)
 : 1, -0.5, i, -2.7, 2, 1.2, 0.71, -5, -8, -1.2
- O=C(COc1ccc(Cl)cc1)Nc1ccc(Cl)cn1
 : -8, 0.4, x, x, -2, 0.6, 0.66, x, x, x
- CCc1nnc(NS(=O)(=O)c2ccc(NC(=O)c3cccc(OC(F)(F)C(F)F)c3)cc2)s1
 : -2, -0.3, +, -4.1, -5, 2.2, 0.66, -53, -76, -13
- Cc1cccc2c(CC(=O)O)noc12
 : -9, 0.1, i, -0.8, -1, -3.0, 0.69, x, x, x

Laid out differently: entries from further up
Structure: Cc1cc(C(=O)NC2CCCCCCC2)ccc1[N+](=O)[O-]
  T cruzi repl = 6	A1 inh = -0.1	FGF22 binding = i	MLL AF4-AF9 inh = -2.7	Beta apoptosis = 17	UCH37 DUB inh = 0.9	Ecoli growth = 0.67	Ecoli rRNA inh = 3	Ecoli rRNA inh OD600 = 3	Ecoli rRNA inh RFP = -1.5

Structure: Cc1cccc2c(CC(=O)O)noc12
  T cruzi repl = -9	A1 inh = 0.1	FGF22 binding = i	MLL AF4-AF9 inh = -0.8	Beta apoptosis = -1	UCH37 DUB inh = -3.0	Ecoli growth = 0.69	Ecoli rRNA inh = x	Ecoli rRNA inh OD600 = x	Ecoli rRNA inh RFP = x

Structure: CC(C)CC(=O)N1CCN(Cc2ccc(Cl)cc2)CC1
  T cruzi repl = -7	A1 inh = -0.6	FGF22 binding = i	MLL AF4-AF9 inh = 2.1	Beta apoptosis = x	UCH37 DUB inh = 0.6	Ecoli growth = 0.67	Ecoli rRNA inh = 1	Ecoli rRNA inh OD600 = 0	Ecoli rRNA inh RFP = -4.4
